BJeLR viab HTS: BJeLR cell viability reduction | BJeLR fibroblasts viability, CellTiterGlo ATP luminescence, 48 h; HRASV12, hTERT and SV40 LT/ST transformed | 30,000 tested, 0.64% active | viability loss activity score, % (no concentration beside the values); in the data active = viability loss activity score above about 50%; about a fifth of its hits are not listed in these tables;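 note: higher score means fewer live cells and less ATP luminescence; stock transfer was 50 or 100 nL into about 30 µL; 0% = vehicle wells and 100% = a reference killing control; one replicate is shown; the record names a cut of 85%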
A1 inhib: A1 inhibition | 21,000 tested, 0.51% active | caspase activation, % (concentration not given with the values) | MEF A1-2A-BIM cells, caspase-Glo luminescence, 3 h; percent of clofoctol signal, DMSO as zero;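 active = most replicate scores above 10, or exactly half above 10 with mean activity above 10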;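 note: effector caspase 3 and 7 activity cleaving a DEVD luciferin substrate; 50 nL library stock added to about 30 µL; numbers are from one replicate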
* marks the source's active call; other numbers are inactive results. An excerpt; the hit share may differ from the screen's.

`Cc1noc(C)c1S(=O)(=O)Nc1ccc2c(c1)C(=O)N([C@@H](C)CO)C[C@@H](C)[C@H](CN(C)Cc1ccc(-c3ccccc3)cc1)O2` gave BJeLR viab HTS -3.0 and A1 inhib 0.4.
`Cc1noc(C)c1NC(=O)Nc1cccc2c1O[C@@H](CN(C)Cc1ccc3c(c1)OCO3)[C@H](C)CN([C@H](C)CO)C2=O` gave BJeLR viab HTS -0.3.
For C[C@@H]1CN([C@H](C)CO)C(=O)c2cc(NC(=O)Cc3cn(C)c4ccccc34)ccc2O[C@H]1CN(C)S(C)(=O)=O the results were BJeLR viab HTS 0.8 and A1 inhib 0.0.
`COc1ccc(CCC(=O)O)c(O[C@@H]2O[C@H](CO)[C@@H](O)[C@H](O)[C@H]2O)c1` gave BJeLR viab HTS -3.9 and A1 inhib 0.9.
CC(=NCc1ccc2c(c1)OCO2)C1=C(O)c2ccccc2C1=O was read as BJeLR viab HTS -3.0 and A1 inhib -1.1.
Cc1cc(C(=O)Nc2cccc3c2O[C@H](CN(C)C(=O)Nc2ccc4c(c2)OCO4)[C@H](C)CN([C@H](C)CO)C3=O)n(C)n1 was read as BJeLR viab HTS 4.4.
For C[C@H]1CN([C@@H](C)CO)C(=O)c2cc(NC(=O)Nc3ccccc3)ccc2O[C@H]1CN(C)Cc1ccncc1 the results were BJeLR viab HTS 1.1 and A1 inhib -0.2.
`CC1Cc2ccccc2N1S(=O)(=O)c1cc(Br)cnc1N` (stereo not given) gave BJeLR viab HTS 4.3 and A1 inhib -1.1.
Screening O=C(O)CCC/C=C\C[C@@H]1CO[C@H](C(F)(F)F)O[C@@H]1c1ccccc1O returned BJeLR viab HTS 5.2 and A1 inhib 0.1.
`COc1ccc(CN(C)C[C@H]2Oc3ccc(NC(=O)Nc4ccc(F)cc4)cc3C(=O)N([C@@H](C)CO)C[C@H]2C)cc1` gave BJeLR viab HTS -1.0 and A1 inhib 0.4.
For CC(=O)OC[C@]12[C@H](OC(C)=O)[C@H](OC(C)=O)[C@@H]3[C@@H](OC(C)=O)[C@@]14O[C@@]3(C)COC(=O)c1ncccc1CC[C@H](C)C(=O)O[C@@H]([C@H](O)[C@@H]2OC(=O)c1ccccc1)[C@]4(C)O the results were BJeLR viab HTS 51* and A1 inhib 2.4.
Screening COc1ccc(S(=O)(=O)N(C)C[C@@H]2Oc3c(cccc3N(C)C)C(=O)N([C@@H](C)CO)C[C@H]2C)cc1 returned BJeLR viab HTS -15.
`CC(C)NC(=O)N(C)C[C@H]1Oc2ccc(NC(=O)Nc3ccc(F)cc3)cc2C(=O)N([C@@H](C)CO)C[C@@H]1C` gave BJeLR viab HTS -1.2 and A1 inhib -0.5.
Screening c1ccc(C2CN3CCSC3=N2)cc1 (stereo not given) returned BJeLR viab HTS 4.2 and A1 inhib 0.3.
`O=C(Nc1ccc(S(=O)(=O)N2CCc3ccccc32)cc1)c1ccccc1` gave BJeLR viab HTS 12 and A1 inhib 0.6.
`Cc1ccc(-c2ccn(-c3ccc(C)c(Cl)c3)c(=S)n2)cc1` gave BJeLR viab HTS -4.6 and A1 inhib -1.0.
`Cc1onc(-c2ccccc2)c1CNC(=O)NC1CCN(C(=O)OCc2ccccc2)CC1` gave BJeLR viab HTS -2.1 and A1 inhib -0.1.
`COc1ccc(NC(=O)N(C)C[C@@H]2Oc3ccc(NC(=O)C4CC4)cc3C(=O)N([C@@H](C)CO)C[C@H]2C)cc1` gave BJeLR viab HTS 1.0 and A1 inhib -0.2.
C[C@@H]1CN([C@@H](C)CO)C(=O)c2cc(NS(C)(=O)=O)ccc2O[C@H]1CN(C)Cc1ccncc1 was read as BJeLR viab HTS 0.4 and A1 inhib -0.2.
For COc1ccc(CN(C)C[C@@H]2Oc3ccc(NC(=O)Cc4cn(C)c5ccccc45)cc3C(=O)N([C@H](C)CO)C[C@@H]2C)cc1 the results were BJeLR viab HTS 3.9 and A1 inhib -0.2.
For O=C(c1ccc(CN2CCc3ccccc3C2)cc1)N1CCCCCC1 the results were BJeLR viab HTS 3.0.
`COc1ccc(OC)c(S(=O)(=O)N2CCCC2)c1` gave BJeLR viab HTS -2.6 and A1 inhib 0.3.
C[C@H](CO)N1C[C@H](C)[C@@H](CN(C)CC2CC2)Oc2c(NC(=O)c3ccncc3)cccc2C1=O was read as BJeLR viab HTS -0.5.
For CC(C)NC(=O)N(C)C[C@H]1Oc2c(NC(=O)c3nc4ccccc4s3)cccc2C(=O)N([C@H](C)CO)C[C@@H]1C the results were BJeLR viab HTS -7.3.
For Cc1ccccc1C(=O)N1N=C(c2ccc(Br)cc2)CC1c1nc2ccccc2[nH]1 (stereo not given) the results were BJeLR viab HTS -2.2 and A1 inhib -0.4.
Cc1cc(SCC(=O)NN)c(C)cc1Cl was read as BJeLR viab HTS -0.6 and A1 inhib 1.3.
`O=C(CSc1ccccn1)N1CCN(S(=O)(=O)c2ccccc2)C1` gave BJeLR viab HTS -3.3 and A1 inhib -0.2.
For Cn1c(C(=O)O)c(CC(=O)Nc2cnc3ccccc3c2)c2ccccc21 the results were BJeLR viab HTS 5.4.
Cc1ccc(S(=O)(=O)N(C)C[C@@H]2Oc3ccc(NC(=O)C4CC4)cc3C(=O)N([C@H](C)CO)C[C@@H]2C)cc1 was read as BJeLR viab HTS 19 and A1 inhib 0.4.
CC(C)NC(=O)Nc1cccc2c1O[C@@H](CN(C)C(=O)NC1CCCCC1)[C@@H](C)CN([C@@H](C)CO)C2=O was read as BJeLR viab HTS -2.9.
O=C(O)CCCc1c(-[n+]2ccccc2)[nH]c2ccccc12 was read as BJeLR viab HTS 0.8 and A1 inhib -0.3.
For COc1ccc2c3c([nH]c2c1)[C@H]1C[C@H]2[C@H](C[C@@H](O)[C@H](OC)[C@H]2C(=O)O)CN1CC3 the results were BJeLR viab HTS 0.0 and A1 inhib -0.2.
Screening Cc1noc(C)c1S(=O)(=O)Nc1ccc2c(c1)C(=O)N([C@@H](C)CO)C[C@@H](C)[C@@H](CN(C)S(C)(=O)=O)O2 returned BJeLR viab HTS 0.8 and A1 inhib 0.1.
C[C@H](CO)N1C[C@H](C)[C@H](CN(C)C(=O)Nc2ccccc2)Oc2c(NC(=O)Nc3ccc(F)cc3)cccc2C1=O was read as BJeLR viab HTS -4.3.
`Cc1ccc(S(=O)(=O)Nc2cccc3c2O[C@H](CN(C)C(=O)Nc2cccc4ccccc24)[C@H](C)CN([C@H](C)CO)C3=O)cc1` gave BJeLR viab HTS 12.
`CCOC(=O)c1cnn(-c2ncnc3sc4c(c23)CCCC4)c1N` gave BJeLR viab HTS 1.3.
For COc1ccc(CN(C)C[C@H]2Oc3c(NC(=O)Nc4ccc(C(F)(F)F)cc4)cccc3C(=O)N([C@@H](C)CO)C[C@H]2C)cc1 the results were BJeLR viab HTS 1.8.
`COc1ccc(C2=NN(CC(=O)N3CCCC3)C(=O)CC2)cc1` gave BJeLR viab HTS 1.8 and A1 inhib 0.1.
C=CCSc1n[nH]c(=O)n1-c1ccc(Cl)cc1 was read as BJeLR viab HTS -1.3 and A1 inhib -0.5.
COc1ccc(-c2cc(C(=O)NCC(C)C)no2)cc1OC was read as BJeLR viab HTS -2.4.
`CC1CCN(S(=O)(=O)c2cnc[nH]2)CC1` gave BJeLR viab HTS 4.1.
`N#Cc1c(-c2ccccc2)nc2n1CCS2` gave BJeLR viab HTS -1.5 and A1 inhib -0.5.
For C[C@H]1CN([C@@H](C)CO)C(=O)c2cccc(NC(=O)c3ccncc3)c2O[C@@H]1CN(C)C(=O)Nc1ccc(C(F)(F)F)cc1 the results were BJeLR viab HTS 1.1.
For COc1ccc(S(=O)(=O)c2c(C(=O)c3ccccc3)cnc3cc(OC)c(OC)cc23)cc1 the results were BJeLR viab HTS 2.1 and A1 inhib 0.2.
O=C(CCNS(=O)(=O)c1ccc(Br)cc1)NC1CCCC1 was read as BJeLR viab HTS 2.9 and A1 inhib 0.8.
`C[C@H]1CN([C@@H](C)CO)C(=O)c2cc(NS(=O)(=O)c3ccc(F)cc3)ccc2O[C@H]1CN(C)Cc1ccc(Oc2ccccc2)cc1` gave BJeLR viab HTS 1.2 and A1 inhib -0.3.
Screening Cc1ccc(NC(=O)c2ccc(S(=O)(=O)N3CC(C)CC(C)C3)cc2)c(C(=O)c2ccccc2)c1 (stereo not given) returned BJeLR viab HTS -5.4 and A1 inhib 0.7.
For CC(C)Cn1c(=S)[nH]c2ccccc2c1=O the results were BJeLR viab HTS -1.3 and A1 inhib 0.7.
COC(=O)c1c[nH]n2c(=O)c(C(C)C)c(C)nc12 was read as BJeLR viab HTS 2.6 and A1 inhib 1.2.
`C[C@H]1CN([C@@H](C)CO)C(=O)c2cccc(NC(=O)NC3CCCCC3)c2O[C@H]1CN(C)S(=O)(=O)c1cccs1` gave BJeLR viab HTS 1.2.
`C[C@@H]1CN([C@H](C)CO)C(=O)c2cccc(NS(=O)(=O)c3cn(C)cn3)c2O[C@@H]1CN(C)C(=O)Nc1ccccc1` gave BJeLR viab HTS 1.5.
C[C@H](CO)N1C[C@H](C)[C@@H](CN(C)Cc2ccc3c(c2)OCO3)Oc2ccc(NC(=O)NC3CCCCC3)cc2C1=O was read as BJeLR viab HTS 2.0 and A1 inhib 0.0.
O=c1[nH]c(=S)c2c(n1N1CCOCC1)CCC2 was read as BJeLR viab HTS 3.5 and A1 inhib -0.5.
`COc1ccc(S(=O)(=O)N(C)C[C@H]2Oc3c(NC(=O)C4CCCCC4)cccc3C(=O)N([C@@H](C)CO)C[C@H]2C)cc1` gave BJeLR viab HTS -0.9.
`COc1ccc(NC(=O)C2CCC(Cn3c(=S)[nH]c4ccsc4c3=O)CC2)cc1` (stereo not given) gave BJeLR viab HTS -0.1 and A1 inhib 1.8.
For COc1ccc(NC(=O)N(C)C[C@H]2Oc3ccc(NC(=O)Cc4cn(C)c5ccccc45)cc3C(=O)N([C@@H](C)CO)C[C@@H]2C)cc1 the results were BJeLR viab HTS -2.0 and A1 inhib 0.4.
Screening C[C@H](CO)N1C[C@H](C)[C@H](CN(C)S(=O)(=O)c2cccs2)Oc2c(NS(=O)(=O)c3ccccc3)cccc2C1=O returned BJeLR viab HTS 4.2.
Screening COc1ccccc1CNC(=O)c1ccc2c(c1)N(Cc1ccc(F)cc1Cl)C(=O)CS2 returned BJeLR viab HTS 0.4.
`COc1ccc(NC2c3ccccc3C(=O)N2c2ccc(Cl)cc2)cc1` (stereo not given) gave BJeLR viab HTS -0.3.
For C[C@@H]1CN([C@H](C)CO)C(=O)c2cc(NS(=O)(=O)c3cn(C)cn3)ccc2O[C@H]1CN(C)C(=O)Nc1ccc2c(c1)OCO2 the results were BJeLR viab HTS 5.4 and A1 inhib 0.2.
Screening Cc1ccc(NC(=O)c2ccc(-c3ccccc3)cc2)nc1 returned BJeLR viab HTS 7.5 and A1 inhib -4.2.
For C[C@@H]1CN([C@@H](C)CO)C(=O)c2cccc(NS(=O)(=O)c3cn(C)cn3)c2O[C@H]1CN(C)Cc1ccc(C(F)(F)F)cc1 the results were BJeLR viab HTS -1.3.
Screening C[C@H](CO)N1C[C@H](C)[C@H](CN(C)C(=O)Nc2cccc3ccccc23)Oc2ccc(NS(=O)(=O)c3cccs3)cc2C1=O returned BJeLR viab HTS 2.1 and A1 inhib -0.2.
O=C(NCc1cccs1)c1ccc2c(c1)N(Cc1ccccc1)C(=O)CS2 was read as BJeLR viab HTS -6.4 and A1 inhib 1.3.
`Cc1noc(C)c1NC(=O)Nc1cccc2c1O[C@H](CN(C)S(=O)(=O)c1ccc(Cl)cc1)[C@H](C)CN([C@H](C)CO)C2=O` gave BJeLR viab HTS -4.2.
Screening C[C@@H]1CN([C@H](C)CO)C(=O)c2cc(NC(=O)Nc3ccc(F)cc3)ccc2O[C@H]1CN(C)Cc1ccc(C(F)(F)F)cc1 returned BJeLR viab HTS 2.2 and A1 inhib -0.8.
`O=C(CSC1N=C2C=CC=CC2O1)c1ccccc1` (stereo not given) gave BJeLR viab HTS -3.6 and A1 inhib -3.6.
`O=C(CCS(=O)(=O)c1cccc2nsnc12)NC(c1ccccc1)c1ccccc1` gave BJeLR viab HTS -2.8.
Screening Cc1noc(C)c1S(=O)(=O)N(C)C[C@H]1Oc2ccc(NS(=O)(=O)c3ccccc3)cc2C(=O)N([C@H](C)CO)C[C@H]1C returned BJeLR viab HTS -1.2 and A1 inhib 0.3.
`C[C@@H]1CC[C@]2(C)[C@H](CC[C@@H](O)[C@]2(C)O)[C@@]1(C)CC(=O)c1ccoc1` gave BJeLR viab HTS -5.4 and A1 inhib 0.0.
C[C@H](CO)N1C[C@H](C)[C@H](CN(C)S(C)(=O)=O)Oc2c(NC(=O)c3ccc(-c4nccs4)cc3)cccc2C1=O was read as BJeLR viab HTS -23.
`COCCN1Cc2cccc(C(=O)NC(C)C34CC5CC(CC(C5)C3)C4)c2C1=O` (stereo not given) gave BJeLR viab HTS -6.9.

6 compounds out of the list, ordered by SMILES length, ascending:
`O=C(CSC1N=C2C=CC=CC2O1)c1ccccc1` (stereo not given) gave BJeLR viab HTS -3.6 and A1 inhib -3.6.
Screening Cc1ccc(NC(=O)c2ccc(-c3ccccc3)cc2)nc1 returned BJeLR viab HTS 7.5 and A1 inhib -4.2.
`COCCN1Cc2cccc(C(=O)NC(C)C34CC5CC(CC(C5)C3)C4)c2C1=O` (stereo not given) gave BJeLR viab HTS -6.9.
`C[C@@H]1CC[C@]2(C)[C@H](CC[C@@H](O)[C@]2(C)O)[C@@]1(C)CC(=O)c1ccoc1` gave BJeLR viab HTS -5.4 and A1 inhib 0.0.
Screening C[C@H](CO)N1C[C@H](C)[C@H](CN(C)C(=O)Nc2cccc3ccccc23)Oc2ccc(NS(=O)(=O)c3cccs3)cc2C1=O returned BJeLR viab HTS 2.1 and A1 inhib -0.2.
`Cc1noc(C)c1NC(=O)Nc1cccc2c1O[C@H](CN(C)S(=O)(=O)c1ccc(Cl)cc1)[C@H](C)CN([C@H](C)CO)C2=O` gave BJeLR viab HTS -4.2.

Screening results as filed in PubChem.
